High-throughput results: PubChem, National Center for Advancing Translational Sciences (NCATS)
Vaccinia Venus: inhibitors of vaccinia virus (Venus reporter); Vaccinia virus Venus reporter expression, fluorescence; 0.46% of 330,000 active; AID 720580; Potency, µM (highest dose often 36.5 µM), without a hit: at the highest dose activity change, negative = inhibition, hits mostly inhibitors; active means well fitted inhibition curve with a large enough effect; inconclusive means small, poorly fitted or top-dose-only effect; inactive means no such curve, though single readings can be large or run the other way; tested in A549 cells; note: nearly all actives have a fitted effect of over 30% in size; inactives centre near -10
Vaccinia mCherry: vaccinia inhibition (mCherry reporter); AID 720579; Potency, µM (series often up to 36.5 µM), for inactives: top-dose activity change, negative = inhibition, actives largely listed as inhibitors; Vaccinia virus mCherry reporter infection, fluorescence; about a quarter of the inactives have no number; 0.63% of 310,000 active; active = well fitted inhibition curve with a large enough effect; inconclusive = small, poorly fitted or top-dose-only effect; inactive = no such curve, though single readings can be large or run the other way; tested in A549 cells; note: nearly all actives have a fitted effect of over 35% in size; inactives centre near -10
The depositor's hits bear a star; i = inactive; ? = inconclusive; / = no result given; [ ] = another dose, or the depositor's remark. % is set by controls: 0 for no effect and ±100 for the full control effect; potency is the fitted concentration of half-maximal effect. No enrichment for hits (roughly 0.88% active in at least one column).

structure,Vaccinia Venus,Vaccinia mCherry
COc1ccc(C2CC(O)(c3ccccc3)Oc3cc(OC)cc(OC)c32)cc1 (centres undefined),-19.9%,?
Nc1nc(Cl)nc2c1ncn2C1CC(O)C(CO)O1 (centres undefined),?,2.51µM*
CCN(CC)c1ccc(NC(=O)CSC(=O)c2ccccc2)cc1,-8.9%,i
COc1cccc(OCC(=O)NNC(=O)C(=O)Nc2ccc(OC)cc2OC)c1,-21.6%,-3.5%
Cc1cc(OCC(=O)Nc2ccc(S(=O)(=O)NC3=NCCCCC3)cc2)c(C(C)C)cc1Cl,-29.0%,-27.1%
Cn1cc(CN2CCC(C(=O)NC(c3ccc(-c4ccccc4)cc3)c3cnccn3)CC2)c2ccccc21 (centres undefined),11.2µM*,?
Cc1csc(B(O)O)c1,-11.8%,-6.9%
CCOC(=O)C(C)Oc1nc(Oc2ccccc2)nc(N(C)C)n1 (centres undefined),-8.7%,/
O=C(CSc1nccc(=O)[nH]1)N1CCc2ccccc2C1,-8.9%,i
Cc1[nH]nc(N)c1-c1ccccc1,-14.3%,i
CC1CCc2sc(C(=O)OCC(=O)NC(N)=O)cc2C1 (centres undefined),-5.4%,-13.7%
Cc1cc(C(=O)Nc2cccc(S(=O)(=O)N3CCCCC3)c2)c2ccccc2n1,-8.3%,-4.4%
O=C(CC1C(=O)NCCN1Cc1cccc(F)c1F)NC1CCCCCC1 (centres undefined),-5.4%,-7.7%
c1cncc(-c2nc(NCCCn3ccnc3)c3ccccc3n2)c1,-1.4%,-8.2%
COc1ccccc1NS(=O)(=O)c1ccc2[nH]c(=S)oc2c1,-22.8%,-1.9%
CCOC(=O)c1c(NC(=O)/C=C/c2ccc(OC)cc2)sc2c1CCC(C)C2 (centres undefined),-5.0%,-9.0%
CCCNC(=O)C(Cc1ccccc1)NC(=O)c1ccccn1 (centres undefined),-13.2%,i
O=C(NCc1ccccn1)c1ccc([N+](=O)[O-])cc1,-7.4%,-14.4%
COC(=O)C[C@H]1C[C@H]2c3cc(NC(=O)C4CCOCC4)ccc3O[C@H]2[C@@H](CO)O1,-10.0%,i
CCN(CC(=O)Nc1ccc2c(c1)OCO2)S(=O)(=O)c1ccccc1,-5.7%,?
CCOC1=C2[C@H](c3ccc(C)cc3)N(S(=O)(=O)c3ccc(C)cc3)C[C@H]2n2c(=O)n(-c3ccccc3)c(=O)n2C1,1.0%,18.9%
COC(=O)C1=C(C)NC(=S)NC1c1ccc(-c2cc(Cl)ccc2Cl)o1 (centres undefined),-14.9%,?
COc1nn(-c2nc(-c3ccccc3)cc(C(F)(F)F)n2)cc1[N+](=O)[O-],-10.1%,-9.7%
O=C(COC(=O)Cc1cccs1)NCc1ccc(F)cc1,-5.0%,-14.3%
CC[C@@H](C)[C@H](CN[C@H](CNC)[C@@H](C)O)NCCc1ccc(OC)cc1,-10.2%,-13.6%
Cn1c(NC(=O)/C=C/c2ccc(Cl)c(Cl)c2)cc(=O)n(C)c1=O,-6.3%,-12.3%
O=C(NCCN=C1NS(=O)(=O)c2ccccc21)c1ccc2nccnc2c1,-10.1%,-14.8%
O=C(CN1CCN(c2ccc(O)cc2)CC1)Nc1ccc(SC(F)F)cc1,-24.8%,-4.8%
CCc1n[nH]c(=S)n1/N=C/c1ccc(N(C)c2ccccc2)cc1,-12.7%,-15.1%
CSc1nc2cc(S(=O)(=O)N3CCCCC3)ccc2s1,-1.8%,i
CCCC(c1nnnn1CCc1ccccc1)N1CCN(C(=O)c2ccco2)CC1 (centres undefined),-27.6%,-5.0%
O=C(c1ccc(F)cc1F)N1CCC(c2nc(-c3ccc(S(=O)(=O)N4CCCC4)cc3)no2)CC1,-6.0%,-19.5%
CC(C)(C)c1ccc(O)c(N=Cc2cc(Br)ccc2O)c1,-24.8%,-14.0%
CN(C)c1ccc(CNC(=O)Cc2ccc(NC(=O)N3CCCCc4ccccc43)cc2)cc1,3.2%,-17.6%
CC1(C)CC(=O)C(CC2=C(O)CC(C)(C)CC2=O)=C(O)C1,-3.8%,-4.2%
CC1(C)CCC[C@]2(C)C(CS(=O)c3ccccc3)=C(C=O)CC[C@@H]12 (some centres undefined),-17.8%,i
O=C(Oc1cccc(C(=S)N2CCOCC2)c1)c1cccc(Cl)c1,-9.6%,-18.6%
CCOC(=O)N1CCN(C(=O)c2ccc(CN(c3ccccc3)S(C)(=O)=O)cc2)CC1,-11.5%,-13.9%
CN(C)P(=O)(CCl)Nc1ccccc1 (centres undefined),-8.3%,-15.0%
CC1=C(C(=O)Nc2cccnc2)C(c2ccc(C)cc2)n2nc(SCc3ccccc3F)nc2N1 (centres undefined),2.6%,-10.4%
CCCC(=O)NC(=S)Nc1cccc(C(C)=O)c1,-14.3%,/
Cc1cccn2c(=O)c(/C=N/O)c(Nc3ccccc3F)nc12,-2.7%,?
CCOC(=O)C(C#N)C(c1cccnc1)c1c(C)[nH][nH]c1=O (centres undefined),-0.9%,-11.6%
COc1ccc(NC(=O)C2(C)CCN2CCOc2ccc(C)cc2)cc1OC (centres undefined),-9.2%,0.5%
CCC(=O)N1CCCC(C(=O)Nc2ccc3cn[nH]c3c2)CC1 (centres undefined),5.4%,5.7%
CC(C)C(NC(=O)c1ccc([N+](=O)[O-])cc1Cl)C(=O)N1CCCC1 (centres undefined),4.0%,-17.7%
COc1ccc(CNC(=O)C(OC(=O)c2ccco2)c2ccc(F)cc2)cc1 (centres undefined),-1.5%,-15.6%
CCN(CC(=O)Nc1ccc(OC)cc1)C(=O)c1cc(-c2cccs2)nn1-c1ccccc1,-14.9%,-21.9%
CC(=O)N1c2ccc(S(=O)(=O)N3CCCC3C(=O)Nc3cccc(F)c3)cc2CC1C (centres undefined),-18.1%,-19.2%
CCN(CC)c1ccc(NC(=O)c2cc(CN3CCCC3)on2)c(C)c1,-10.2%,-7.8%
CC(=O)c1ccc(N2CCN(C(=O)c3cc4c(s3)-c3ccccc3OC4)CC2)cc1,-7.6%,-14.1%
O=c1c2ccccc2nnn1CSc1ccc2ccccc2n1,-5.8%,-16.3%
O=C(CC1NC(=S)NC1=O)c1ccc(Cl)cc1 (centres undefined),-3.1%,i
C=CCC(COCc1ccccc1)NS(=O)(=O)c1ccccc1Br (centres undefined),-5.9%,-3.9%
Cc1cc(NC(=O)C(C)SCC(=O)N(C)CC(=O)Nc2ccccc2Br)no1 (centres undefined),-13.5%,i
CC(=O)Nc1cc(F)c2c(c1F)Cc1cc(F)ccc1-2,-8.0%,-24.4%
Cc1n[nH]c(=O)n(N=Cc2cccs2)c1=O,1.7%,i
CCCC(=O)Nc1cc(OCC)c(NC(=O)NC2CCCCC2)cc1OCC,-0.4%,2.4%
Cc1cc(C(F)F)nn1CC(=O)NCc1ccco1,-5.1%,-14.1%
CC(=O)C1C2c3ccccc3OC1(C)N=c1s/c(=C/c3cn(C)nc3C)c(=O)n12 (centres undefined),-14.9%,/

Retrieved by structure from above, 2 records:
structure,Vaccinia Venus,Vaccinia mCherry
CCOC(=O)C(C#N)C(c1cccnc1)c1c(C)[nH][nH]c1=O (centres undefined),-0.9%,-11.6%
CN(C)P(=O)(CCl)Nc1ccccc1 (centres undefined),-8.3%,-15.0%

Next section:
structure,Vaccinia Venus,Vaccinia mCherry
Cc1cc2nn(-c3ccc(F)cc3)nc2cc1NC(=O)c1cccc2c(Cl)cccc12,-14.9%,-23.8%
COc1cc(C(=O)C(=O)c2cc(OC)c(O)c(OC)c2)cc(OC)c1O,-1.2%,-12.3%
COc1cc(-c2nc3ccccc3s2)ccc1O,-2.6%,-3.6%
Clc1cccc(Cl)c1Cl,-12.5%,-18.6%
COC(=O)C(C)n1cnc2c(nnn2-c2ccccc2)c1=O (centres undefined),-3.0%,15.9%
CCCCCCCCSc1nnc2[nH]c(=O)cc(N)n12,-20.9%,-12.1%
CCSc1ccc2c(c1)N(CCCN1CCN(C)CC1)c1ccccc1S2,?,-21.1%
CCn1c(SCC(=O)OCC(=O)N2c3ccccc3NC(=O)C2(C)C)nnc1-c1ccco1,-2.1%,-11.3%
COc1ccc(-c2oc3ccccc3c2C(=O)OCc2ccccc2OC)cc1,6.4%,i
CN(c1ccccc1)S(=O)(=O)c1ccc(NC(=O)c2ccc(F)cc2)cc1,1.3%,i
CC(C)N(CCNC(=O)c1ccc(NC2=NC3CS(=O)(=O)CC3S2)cc1)Cc1ccco1 (centres undefined),-8.3%,i
COc1ccc(NC(=O)c2c(NCc3cccs3)sc3c2CCCC3)c(OC)c1,-12.9%,-10.1%
Cn1c(C(=O)NCCc2ccccc2)cc2sc(Cl)cc21,-9.8%,-15.2%
O=C1CCCCC1S(=O)(=O)c1ccccc1 (centres undefined),-1.4%,-9.7%
Cc1ccc(NC(=O)N2CCCCC2)cc1[N+](=O)[O-],-9.7%,-7.3%
COC(=O)c1ccccc1-c1ccc(C(c2c(C)[nH][nH]c2=O)c2c(C)[nH][nH]c2=O)o1,-13.6%,i
OCCN=C1CCCc2c1[nH]c1ccc(Cl)cc21,-20.3%[7.34 µM],?
Cc1ccccc1NC(=O)c1ccno1,-4.6%,i
O=c1c2ccccc2n(Cc2ccc(F)cc2)c(=O)n1C1CCCC1,-8.6%,/
Cc1ccc(C(=O)NCCc2nnc3n2CCN(Cc2ccnc4ccccc24)CC3)c(C)c1,-13.5%,-13.2%
O=C(c1cc2ccc3cccnc3c2[nH]1)N1CCN(c2cccc(C(F)(F)F)c2)CC1,-2.7%,i
O=C(CCc1ccccc1)Nc1ccc(N2CCOCC2)cc1,-6.4%,i
CCOCCCNC(=O)c1ccc(CN2CCc3ccccc3C2)cc1,-18.0%,-3.9%
COc1cccc(-c2cc3c(c(OC)c2)OCCN(S(=O)(=O)c2ccccc2OC(F)(F)F)C3)n1,-6.3%,-16.4%
O=C(COC(=O)CC1c2ccccc2CCN1S(=O)(=O)c1ccc(F)cc1)Nc1ccccc1 (centres undefined),-14.9%,i
CCc1nnc(NC(=O)c2ccc3c(=O)n4c(nc3c2)CCCCC4)s1,1.9%,i
CCOC(=O)CSC1=C(C#N)C(C)C2=C(CCCC2=O)N1 (centres undefined),-1.5%,/
CC(C)(C)NS(=O)(=O)c1ccc(CCC(=O)N2CCOCC2)cc1,-5.7%,-10.3%
COc1cc(SC)ccc1C(=O)Nc1cccc(C)n1,-18.4%,i
COc1ccc(-c2nn(-c3ccccc3)cc2/C=N/n2cnnc2)cc1OC,13.9%,/
CCOc1ccc(-c2csc(N)c2C(=O)OC)cc1,-13.6%,-17.9%
COc1ccc(CNC(=O)C2CCN(S(=O)(=O)c3ccc4c(c3)CC(C)N4C(=O)C3CC3)CC2)cc1 (centres undefined),-2.9%,-3.7%
N#Cc1ccc(-c2nc3ccc(Cl)cn3c2Cc2ccccc2C(F)(F)F)cc1,-6.1%,i
Cc1nn(C)c(C)c1S(=O)(=O)N1CCC(C(=O)NCCC2=CCCCC2)CC1,-10.3%,6.4%
COc1ccc(N2C(=O)CS/C2=N\C(=S)Nc2ccccc2)cc1,-8.6%,-11.1%
CCCN(Cc1nnc(-c2ccccc2Cl)o1)C(=O)COc1ccc(Cl)cc1,-17.4%,-20.2%
CCCCC(=O)NCCc1ccc(OC)cc1,-13.8%,-0.6%
COc1cc(C#N)ccc1OCC(=O)N1CCc2ccccc2C1,-11.7%,-0.3%
O/N=C/c1cn(-c2ccccc2)nc1-c1ccc2c(c1)OCCO2,?,?
Cc1cc(=O)n(Cc2ccc(F)cc2Cl)c2c1c(C)nn2-c1ccccc1,9.4%,-6.5%
Cc1c(S(=O)(=O)N2CCc3ccccc3C2)c(=O)n(C)c(=O)n1C,-5.7%,i
COc1cc(OC)cc(C(=O)NC(=S)Nc2nnn(C)n2)c1,-8.3%,-14.8%
Cc1cc(C(=O)NNC(=S)NC(=O)/C=C/c2ccccc2Cl)n[nH]1,?,?
N#Cc1ccccc1NC(=O)CSc1nnc(-c2ccc(F)cc2)n1-c1ccccc1,-21.2%,/
CCc1ccc(NC(=O)CSc2ccccn2)cc1,-8.2%,i
CCN1CCN(S(=O)(=O)c2ccc(Cl)c(C(=O)N(C)Cc3ccc(F)cc3)c2)CC1,-11.1%,i
Cc1nc2c(c(C)nn2-c2ccccc2)c(C)c1CCC(=O)Nc1ccc(F)cc1,-11.1%,-0.5%
CC[C@H]1CN2CC[C@@]3(C(=O)Nc4ccccc43)[C@@H]2C[C@@H]1/C(=C\OC)C(=O)OC,4.6%,-0.1%
CC(C)(C)Nc1c([N+](=O)[O-])c(=O)sc2ccccc12,-0.5%,i
O=c1[nH]c2cc3c(cc2cc1C(c1nnnn1C1CCCC1)N1CCCc2ccccc21)OCCO3 (centres undefined),1.4%,-5.0%
CCOC(=O)CS(=O)(=O)c1ccc(C(F)(F)F)cn1,-21.7%,/
COc1ccc2[nH]c3c(NCc4ccco4)ncnc3c2c1,-23.2%,?
Cc1cc(C(=O)NCC(=O)O)c(C)o1,-7.0%,-12.3%
Cc1ccc(OCCn2c(CNc3ccccc3C)nc3ccccc32)cc1,-8.9%,-4.1%
COCCn1nnnc1C(CC(C)C)N1CCN(c2cccc(OC)c2)CC1 (centres undefined),-3.4%,-16.5%
